# Assay outcomes: PubChem, several laboratories
# UCH37 DUB inh – blocks the human deubiquitinase UCH37; Q9Y5K5; purified proteasome/UCH37, Ub-AMC cleavage fluorescence; inhibition, % (test concentration not listed); 330,000 compounds, 0.33% hits;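 active means mean of two replicates above 20%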;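 further: 0% = compound-free wells with enzyme and 100% = wells lacking proteasome; stock transfer was 100 nL into about 20 µL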
# Target sequence (Q9Y5K5 whole entry, looked up): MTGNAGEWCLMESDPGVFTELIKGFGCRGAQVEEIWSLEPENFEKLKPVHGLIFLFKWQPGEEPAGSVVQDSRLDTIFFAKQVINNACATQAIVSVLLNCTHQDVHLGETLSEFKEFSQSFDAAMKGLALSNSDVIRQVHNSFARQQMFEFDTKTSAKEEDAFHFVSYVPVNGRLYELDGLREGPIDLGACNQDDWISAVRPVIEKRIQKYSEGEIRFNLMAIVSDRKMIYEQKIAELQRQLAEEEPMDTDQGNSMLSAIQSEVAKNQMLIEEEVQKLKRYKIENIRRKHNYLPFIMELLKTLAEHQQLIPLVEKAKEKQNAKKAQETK
#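 assay system = human UCH37 enzyme supplied as purified proteasome complex | amount = proteasome at 0.15 nM in the dispensed enzyme solution | schedule = 30 min compound-proteasome preincubation then 25 min substrate reaction, room temperature | measured by = fluorescence, ex 355 nm, em 460 nm | benchmarks = no-proteasome wells (full inhibition) and compound-free wells (no inhibition)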
# MLL AF4-AF9 inh – inhibitors of human MLL-AF4/AF9 interaction; AlphaScreen, biotin-AF4 peptide binding to FLAG-AF9; 350,000 compounds, 0.47% hits; AID 651704; P42568; inhibition, % at 10 µM;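 active means every replicate reaching a set inhibition limit, whatever the replicate mean, cut at about 25% in these data; inconclusive means mean inhibition reaches that limit but some replicates miss it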;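 further: 0% = plate neutral control median and 100% = total signal loss; the record names both 10 and 1 µM as test concentration; the first replicate is given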
# Target sequence (P42568 whole entry, looked up): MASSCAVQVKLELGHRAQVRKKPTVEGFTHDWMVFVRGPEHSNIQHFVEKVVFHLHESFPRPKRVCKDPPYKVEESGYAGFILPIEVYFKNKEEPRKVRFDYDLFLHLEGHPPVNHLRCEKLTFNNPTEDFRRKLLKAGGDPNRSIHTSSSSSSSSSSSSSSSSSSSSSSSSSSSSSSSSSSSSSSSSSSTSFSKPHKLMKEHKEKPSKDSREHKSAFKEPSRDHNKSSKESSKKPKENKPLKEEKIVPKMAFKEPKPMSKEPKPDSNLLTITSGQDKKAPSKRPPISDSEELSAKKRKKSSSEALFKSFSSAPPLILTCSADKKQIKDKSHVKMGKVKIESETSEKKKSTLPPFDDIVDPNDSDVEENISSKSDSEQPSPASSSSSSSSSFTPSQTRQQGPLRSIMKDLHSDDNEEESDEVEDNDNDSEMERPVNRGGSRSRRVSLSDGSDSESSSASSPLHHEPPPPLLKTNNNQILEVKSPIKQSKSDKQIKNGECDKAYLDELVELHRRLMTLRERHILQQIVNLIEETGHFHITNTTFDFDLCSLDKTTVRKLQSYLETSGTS
# HNF4A DNA FP – change in binding of human HNF4 alpha to DNA; HNF4a-FITC DNA binding, fluorescence polarization, 1 h; activity change, % at 10 µM; 360,000 compounds, 0.3% hits; in the data active means activity change above about 30%, passing the limit was not always enough;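 further: controls were the assay level and a saturating level of protein; the project sought stronger binding though the title names inhibitors; some compounds called inactive have numbers as strong as hits; positive values seem to mean higher polarization but the record does not say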
# Vif TR-FRET – HIV-1 Vif–A3G interaction blockers – biochemical, TR-FRET, GST-Vif 1-94, biotin-A3G peptide, dose response retest, primary screen (AID 1117319). TR-FRET GST-Vif / biotin-A3G peptide binding; higher % means a stronger effect; test concentration not given here; strong numbers were not always called active. inhibition, %; hits with a dose series show IC50 in µM. 260,000 compounds, 0.57% hits;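 active means above the screen mean plus three standard deviations and confirmed in dose response; inconclusive means results disagree or hit not tested in dose response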;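 further: Vif residues 1-94 fused to GST binding biotinylated APOBEC3G peptide 110-148; 0% = full assay without inhibitor and 100% = GST in place of GST-Vif; retest series ran down from 100 µM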
# RanGTP-Impb inh – inhibitors of RanGTP-importin-beta interaction, primary screen, biochemical, FRET, CFP-Ran, YFP-importin-beta, homogeneous; cell-free CFP-Ran/YFP-importin-beta FRET ratio; inhibition, % (no concentration beside the values); 300,000 compounds, 1.1% hits;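 active means most replicates above 15%; inconclusive means exactly half above 15%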;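 further: 0% = DMSO wells and 100% = Ran loaded with GDP instead of GTP; wells of about 40 µL received 100 nL stock; the first replicate is given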
# E coli growth – E. coli growth inhibition; Escherichia coli growth, OD600, 23 h; hits give low values; OD600 absorbance (test concentration not listed); 330,000 compounds, 0.21% hits; AID 1053175;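 active means OD600 absorbance below the run mean of sample wells minus 3.6 SD, in any replicate, cut at about 0.56 in these data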;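 further: stock transfer was 300 nL into about 60 µL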
# FGF22 binding – binders of recombinant human FGF22 by thermal shift | SYPRO orange fluorescence; percent of sucrose octasulfate shift, DMSO zero | calls only at 9.99 µM | 340,000 compounds, 1.5% hits | AID 651658;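 active means melting point raised past a set limit in the mean and every replicate; inconclusive means no clear call; three in four hits are not shown here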
# Target sequence (Q9HCT0 whole entry, looked up): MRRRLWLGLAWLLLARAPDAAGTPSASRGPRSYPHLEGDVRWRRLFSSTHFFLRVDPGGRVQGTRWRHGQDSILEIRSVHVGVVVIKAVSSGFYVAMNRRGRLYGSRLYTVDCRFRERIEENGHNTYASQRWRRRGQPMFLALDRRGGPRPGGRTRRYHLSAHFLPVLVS
# * = called active by the depositor; i = inactive; ? = inconclusive; . = not tested or not shown; & = joins results of further samples. Not all compounds are listed; rates above refer to the full screens.
SMILES,UCH37 DUB inh,MLL AF4-AF9 inh,HNF4A DNA FP,Vif TR-FRET,RanGTP-Impb inh,E coli growth,FGF22 binding
COC(=O)CCCC(=O)N1CCCC(CCC(=O)NCc2ccc(F)c(F)c2)C1 (stereo not drawn),3.7,-2.3,3.2,2.6%,3.5,0.721,.
Cc1cccc(C(=O)NCc2nnc(SCC(=O)NC3=NCCS3)n2C)c1,5.2,1.0,2.9,.,-11.5,0.708,i
Cc1sc2ncnc(N3CCC(C(=O)Nc4ccc(F)cc4Cl)CC3)c2c1C,4.3,-2.1,5.0,-17.5%,.,0.654,i
CCCNC(=O)CN(C)S(=O)(=O)c1c(C)cc(C)cc1C,0.8,.,-1.2,.,-0.5,0.691,.
CN(CC(=O)NCc1ccco1)CC(=O)Nc1ccc(F)c(F)c1F,3.9,4.9,2.0,-5.5%,.,0.681,i
O=C(N/N=C/c1cn(-c2ccccc2)nc1-c1cccnc1)c1ccc(F)cc1,.,0.5,1.9,-3.9%,3.0,.,i
CCn1cc(C(=O)N2CCN(c3ccc(F)cc3)CC2)c2cc(OC)c(OC)cc2c1=O,3.1,-22.3,-2.5,0.4%,-2.0,0.645,i
c1ccc2sc(NC3=NCN(CC4CCCO4)CN3)nc2c1 (stereo not drawn),5.4,0.8,-0.9,.,-1.8,0.728,i
CC(/C=N\NC(=O)c1ccc(C)nc1)=C\c1ccccc1,.,0.7,-2.6,-0.2%,-1.7,.,i
Cc1cccc2cc(C(c3nnnn3CC3CCCO3)N3CCOCC3)c(=O)[nH]c12 (stereo not drawn),-8.8,.,-2.2,2.8%,?,0.712,.
CCC(=O)Nc1cccc(C(=O)/C=C/c2ccc(F)cc2)c1,5.4,1.0,4.6,7.5%,0.1,0.647,i
CCOC(=O)CC(=O)CSc1nc2c(c(C)c1C#N)CCC2,-29.8,.,-0.1,3.5%,24.3*,0.705,.
COc1cccc(NC(=O)/C=C/c2ccccc2[N+](=O)[O-])c1,2.2,3.0,2.5,12.4%,3.6,0.638,i
COc1ccc(NC(=O)C2c3ccccc3OCC(=O)N2Cc2ccc3c(c2)OCO3)cc1 (stereo not drawn),.,2.9,4.4,.,.,.,i
Cc1ccc(OCc2nnc(SCC(=O)CC(=O)Nc3ccccc3)o2)cc1,4.7,.,-0.6,10.5%,26.6*,0.714,.
Cc1c(N=C2SCC(=O)N2/N=C/c2ccccc2Cl)c(=O)n(-c2ccccc2)n1C,.,.,3.6,2.0%,?,.,.
CCC(CC)=N/N=C/c1c(O)n(CC)c2cc(C3=NNC(=O)CC3)ccc12,.,.,10.6,7.0%,1.3,.,.
NC1=NC(=O)S/C1=C\c1ccc(O)cc1,13.9,.,-2.0,22.0%,-0.9,0.7,.
CCOc1ccc(C(=O)NC(=S)Nc2cccnc2)cc1[N+](=O)[O-],.,-1.7,14.9,8.6%,-3.0,.,i
Cc1ccc(CSC(Nc2ccc(F)cc2)=C(C#N)C#N)cc1,6.8,4.7,1.0,.,-0.2,0.648,i
O=S(c1ccccc1)C(c1ccccc1)c1ccccc1 (stereo not drawn),1.4,-1.1,-0.8,1.8%,.,0.693,i
CCOC(=O)c1cc(-c2ccccc2)sc1NC(=O)CN1C(=O)c2ccccc2C1=O,5.1,.,-1.2,-19.2%,2.6,0.676,.
CCc1ccc(NC(=O)CCC(=O)Nc2nnc(C(C)C)s2)cc1,1.9,2.1,1.4,.,-0.9,0.687,i
COc1ccc(C(=O)Nc2nc(C)cs2)cc1S(=O)(=O)N1CCOCC1,.,4.7,0.9,0.2%,.,.,i
O=Nc1c(O)n(Cc2ccc(Cl)c(Cl)c2)c2ccccc12,7.3,.,2.7,-5.2%,-3.6,0.663,.
CCOC(=O)/C(C#N)=C/Nc1ccccc1OC(F)(F)F,4.1,-1.7,-3.9,-0.8%,-3.4,0.696,i
CC(C)Oc1ccccc1C1CC(=O)Nc2c1c(=O)n(C)c(=O)n2C (stereo not drawn),4.1,.,.,0.2%,0.9,0.696,.
N#CCCN(C(=O)CCl)c1cccc(Cl)c1,0.4,2.1,-2.4,-1.3%,-3.0,0.678,i
CC(C)C(C(=O)NCC1CCCO1)N(Cc1ccco1)C(=O)CNS(=O)(=O)c1ccccc1 (stereo not drawn),2.3,.,0.9,4.5%&3.6%,-2.2,0.742,.
COc1cc(/C=N/NC(=S)NCc2ccccc2)ccc1OCC#N,.,.,2.0,6.8%,-0.3,.,.
O=C(/C=C/c1ccccc1)NNC(=O)c1cccs1,-0.1,-15.6,3.5,-2.8%,2.4,0.728,i
CCc1ccccc1NC(=O)CN(C)C(=O)COC(=O)c1c(Cl)cccc1Cl,0.4,-0.1,-1.7,3.1%,.,0.648,i
Cc1ccc(NNC(=O)c2c(F)cccc2Cl)cc1Cl,5.2,2.0,0.5,-6.9%,-1.5,0.66,i
Cc1cc(C)c2c(CN3CCOCC3)cc(=O)oc2c1C,3.6,-1.0,-0.9,4.7%,2.5,0.682,i
CCCCN(c1ccccc1)c1ncnc(N)c1[N+](=O)[O-],3.9,1.4,1.8,5.1%,0.3,0.732,i
CCc1cccc(C)c1NC(=O)c1cc(-c2ccncc2)nc2ccccc12,4.8,1.7,17.5,8.0%,.,0.644,i
COc1ccccc1NS(=O)(=O)c1cccc(C(=O)N/N=C(\C)c2ccncc2)c1,.,-1.2,-2.1,-6.1%,.,.,i
CCOC(=O)c1ccc(CNC(=O)CSc2nnc(-c3ccncc3)o2)cc1,3.1,-3.2,-1.7,18.6%,25.9*,0.672,i
O=C(NCc1ccccc1)c1ccc(CNc2c(N3CCCC3)c(=O)c2=O)cc1,1.4,5.4,0.3,.,-10.7,0.688,i
CCOc1ccc(CN2C(=O)c3ccccc3C2=O)cc1C(=O)Nc1nnc(SCC)s1,-2.7,.,2.5,-0.2%,3.4,0.719,.
O=C(/C=C/[C@H]1O[C@@H](n2ccc(=O)[nH]c2=O)[C@H](O)[C@@H]1O)NCCN1CCOCC1,.,-2.7,3.1,.,.,.,i
Cc1ccc(-c2nnc(C)c(N3CCOCC3)n2)cc1,4.7,.,-0.6,17.3%,-0.2,0.784,.
CC(C)c1c(C(=O)N/N=C/c2cccc(OCc3ccc(F)cc3)c2)nnn1-c1nonc1N,.,-6.8,-5.3,.,-0.9,.,i
O=C(CNc1ccccc1F)Nc1cccc(S(=O)(=O)N2CCCCC2)c1,1.8,-1.9,-0.6,8.0%,.,0.616,i
COc1ccc(-n2c(COc3ccccc3)n[nH]c2=S)cc1,0.9,-8.6,0.3,.,4.3,0.691,i
COc1ccc(N2CCN(CC(=O)NC(=O)NC(C)(C)C)CC2)cc1,1.5,1.8,-2.1,6.8%,0.2,0.672,i
CCOc1ccc(OCCC(=O)NNC(=O)c2ccncc2)cc1,0.4,-2.8,-4.1,5.8%,.,0.697,i
CCOc1ccc(S(=O)(=O)N2CCN(C(=S)NCc3ccccc3)CC2)cc1,0.6,-26.8,-1.0,.,-4.6,0.663,i
O=c1[nH]c(C2CCCN(S(=O)(=O)c3cccc(F)c3)C2)nc2c1nnn2Cc1ccccc1 (stereo not drawn),5.2,-1.1,2.0,.,6.6,0.653,.
COc1ccc(CN(C#N)c2nc(C)cc(C)n2)cc1,2.8,-1.0,-5.3,2.6%,-2.3,0.674,i
C[C@@]12C(=O)N(c3ccccc3)C(=O)N1[C@@H]1c3ccccc3OC[C@@H]1[C@H]2c1ccccc1,2.0,.,-5.3,.,.,.,i
Cc1ccc(NC(=O)COc2ncnc3sccc23)cc1S(=O)(=O)N(C)C,-0.7,-4.0,10.8,3.0%,6.1,0.7,i
C=CCSc1nc(N)c(C#N)c(-c2ccccc2)c1C#N,-0.2,.,2.4,-47.9%,10.3,0.764,.
O=C(CSc1nnc2scc(-c3ccc(Cl)cc3)n12)NCc1ccco1,2.0,.,1.9,-1.4%,-1.3,0.696,.
CCC(=O)Oc1ccc(/C(CC)=C(\CC)c2ccc(OC(=O)CC)cc2)cc1,5.6,-1.0,-2.4,25.2%,1.9,.,i
CCOC(=O)c1ccc(NC(=S)N(CCN2CCCCCC2)Cc2cccs2)cc1,4.0,0.9,-0.8,?,-0.1,0.679,i
O=C(NCC1CCCCC1)c1cccc(S(=O)(=O)N2CCCC2)c1,3.8,-0.6,-1.2,.,.,0.683,i
O=C(O)C1CCN(c2c([N+](=O)[O-])cc(C(F)(F)F)cc2[N+](=O)[O-])CC1,4.8,.,0.8,12.3%,2.6,0.719,.
O=C(CSc1nnnn1-c1ccc(F)cc1)Nc1nc2ccccc2s1,3.2,.,-1.4,-0.8%,?,0.732,.
CCOC(=O)CCCNC(=O)CCNC(=O)c1ccc(OCC(C)C)cc1,3.0,-1.5,2.6,.,0.0,0.665,i

# Shown with values under each structure: part of the list above
# The line under a structure holds: UCH37 DUB inh	MLL AF4-AF9 inh	HNF4A DNA FP	Vif TR-FRET	RanGTP-Impb inh	E coli growth	FGF22 binding
Cc1ccc(NC(=O)COc2ncnc3sccc23)cc1S(=O)(=O)N(C)C
  -0.7	-4.0	10.8	3.0%	6.1	0.7	i
CCOC(=O)c1ccc(NC(=S)N(CCN2CCCCCC2)Cc2cccs2)cc1
  4.0	0.9	-0.8	?	-0.1	0.679	i

# New compounds follow
SMILES,UCH37 DUB inh,MLL AF4-AF9 inh,HNF4A DNA FP,Vif TR-FRET,RanGTP-Impb inh,E coli growth,FGF22 binding
Cc1nnc(NC(=O)CCC(=O)N2CCN(S(=O)(=O)c3cc([N+](=O)[O-])ccc3C)CC2)s1,4.5,-5.4,-1.8,-3.9%,.,0.683,i
Cc1ccc2c(c1)cc(CN(Cc1cccnc1)C(=O)c1ccccc1)c1nnnn12,5.1,-0.8,-2.9,?,4.4,0.683,i
C=CCC1NS(=O)(=O)O[C@H](CCCC)[C@@H]1O (stereo partly drawn),1.4,1.9,-4.1,.,-0.3,.,i
O=c1oc(CCO)cc2ccc(C#Cc3ccsc3)cc12,-5.1,-3.9,1.7,.,.,0.661,i
Clc1ccc(-c2csc3ncnc(Cl)c23)cc1,1.9,.,0.6,-9.6%,1.1,0.681,.
Cc1noc(-c2ccccc2)c1NC(=O)Nc1ccccc1,2.5,-1.5,-9.2,-7.8%,2.3,0.648,i
CC(=O)c1ccc(NC(=O)CN2CCN(CC(=O)Nc3ccc(C(C)=O)cc3)CC2)cc1,-0.5,-3.0,5.9,0.0%,-2.1,0.689,i
O=C(COc1ccc2ccccc2c1Br)Nc1cccnc1,6.8,-1.3,4.3,-3.8%,0.2,0.704,i
O=C(O)Cc1ccc(C(=O)c2ccc(F)cc2)s1,3.4,.,1.1,-2.6%,?,0.712,.
CC1CCc2nn(CC(=O)NCc3ccc(F)cc3)cc2C1 (stereo not drawn),1.8,-2.8,0.4,8.6%,-1.3,0.758,i
Cc1cc(C)n(C(=O)c2ccc(NC(=O)C3COc4ccccc4O3)cc2)n1 (stereo not drawn),0.7,.,1.0,4.3%,0.4,0.709,.
CCN(CC(=O)Nc1ccc(N2CCOCC2)cc1)C(=O)COc1ccccc1OC,.,-1.7,-0.9,-1.7%,-0.5,.,i
NCc1cccc(CNc2ccc([N+](=O)[O-])cc2C(N)=O)c1,3.9,0.8,-3.8,.,.,0.642,i
COc1ccc(C(C)C)cc1S(=O)(=O)NCCCn1ccnc1,-0.4,4.5,6.2,.,-1.4,0.672,i
Fc1ccc2[nH]c3c(N4CCc5ccccc5C4)ncnc3c2c1,-14.2,-2.4,0.3,65.6%,9.3,0.704,.
CCn1cc(/C=C(\NC(=O)c2ccccc2F)C(=O)NCCCn2ccnc2)c2ccccc21,12.2,6.4,3.4,.,0.7,0.662,i
Cc1nn(C)c(Cl)c1CN1CCCC(CO)(Cc2ccccc2)C1 (stereo not drawn),0.2,0.4,-3.2,9.2%,2.0,0.653,i
